Rango dissoc inh – prevents RanGTP from dissociating the Rango-importin beta complex. O95149+P62826. Biochemical FRET Rango-importin beta, RanGTP-induced dissociation. Potency, µM (series often up to 46.1 µM), for the others: at the top dose activity change, negative = inhibition. actives 0.071% (n = 340,000). AID 540253; active means falling FRET ratio curve, often poorly fitted, with flat reads before Ran was added; inconclusive means other falling curves, or compound fluorescence or quenching; inactive means flat or rising ratio curve;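 also: potency is read from the fitted curve at half-maximal effect; % of control where 0% means no effect; nearly all actives have a fitted effect of over 45% in size; -100% = wells without RanGTP and RCC1; the record marks most hits as doubtful in a second field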
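Rango/importin beta premix (0.1/0.25 uM final), PBS + 1 mM DTT + 0.02% Tween-20 + 0.1% BSA; cpd 5 min RT; FRET pre-read; + RanGTP-RCC1 (0.6 uM Ran, 2 mM GTP, 0.2 uM RCC1); 45 min RT; FRET post-read, ex 430, em 486/530 nm.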
Rango-impB inh – prevents formation of the Rango-importin beta complex; AID 540263; actives 0.031% (n = 340,000); Q14974; Potency, µM (highest dose often 92.2 µM), inactives show top-dose inhibition of complex formation; Rango CFP/YFP FRET sensor + importin beta, 45 min; active = rising FRET ratio curve, often small or poorly fitted; inconclusive = mostly compound fluorescence or quenching in the first reads; inactive = flat curves in all reads;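 also: potency is read from the fitted curve at half-maximal effect; 0% = DMSO wells and 100% = buffer wells lacking importin beta; nearly all actives have a fitted effect of over 15% in size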
Target sequence (Q14974 whole entry, looked up): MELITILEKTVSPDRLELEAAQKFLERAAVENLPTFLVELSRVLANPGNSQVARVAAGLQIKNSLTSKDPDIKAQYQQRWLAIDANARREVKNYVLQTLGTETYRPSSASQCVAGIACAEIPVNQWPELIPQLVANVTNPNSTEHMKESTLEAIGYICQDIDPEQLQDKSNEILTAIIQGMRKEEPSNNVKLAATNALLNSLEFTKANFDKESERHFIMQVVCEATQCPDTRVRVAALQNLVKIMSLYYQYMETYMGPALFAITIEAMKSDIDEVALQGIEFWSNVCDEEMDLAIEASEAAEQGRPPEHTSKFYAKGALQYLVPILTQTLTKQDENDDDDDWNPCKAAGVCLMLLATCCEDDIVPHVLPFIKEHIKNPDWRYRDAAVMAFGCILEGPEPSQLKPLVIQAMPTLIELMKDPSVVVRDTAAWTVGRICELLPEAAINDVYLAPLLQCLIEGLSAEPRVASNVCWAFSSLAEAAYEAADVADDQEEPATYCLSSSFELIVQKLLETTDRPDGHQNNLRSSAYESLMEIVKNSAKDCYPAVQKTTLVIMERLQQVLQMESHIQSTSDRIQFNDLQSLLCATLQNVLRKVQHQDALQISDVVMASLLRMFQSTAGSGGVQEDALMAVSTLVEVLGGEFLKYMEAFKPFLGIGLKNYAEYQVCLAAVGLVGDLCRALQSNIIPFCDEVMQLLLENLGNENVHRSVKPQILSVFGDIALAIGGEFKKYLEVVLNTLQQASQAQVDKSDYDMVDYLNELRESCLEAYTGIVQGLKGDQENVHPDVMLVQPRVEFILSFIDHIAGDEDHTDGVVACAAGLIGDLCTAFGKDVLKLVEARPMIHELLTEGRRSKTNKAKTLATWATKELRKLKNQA
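FRET biosensor (snurportin 1 IBB flanked by EYFP and cerulean), 50 nM, with compound 5 min, then 0.125 microM importin beta in PBS, 1 mM DTT, 0.02% Tween-20, 0.1% BSA. CFP/YFP ratio read after 45 min at room temperature; pre-read flags interference.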
GLA inh pH 4.5 – blocks human alpha-galactosidase A at pH 4.5; purified enzyme, 4-MU-alpha-Gal fluorescence, pH 4.5; P06280; activity change, negative = inhibition, % at 105 µM; 230,000 tested, under 10 active; AID 1467; inconclusive = small, poorly fitted or top-dose-only inhibition, or a rising curve; inactive = flat fitted curve, though single readings scatter; no compound was filed as active;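 also: 0% = full activity with enzyme and -100% = basal without enzyme; dose as in the result columns while the protocol names 77 µM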
miR-21 FLuc – miR-21 reporter, rising signal. HeLa miR-21 FLuc reporter, luciferase, 48 h. Potency, µM (titrated, usually from 38.3 µM), for the others: at the top dose reporter change, positive = more light. 340,000 tested, under 10 active. AID 2288; active = well fitted rising curve with a large enough effect; inconclusive = small, poorly fitted or top-dose-only effect; inactive = no such curve, though single readings can be large or run the other way;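 also: % of control where 0% means no effect; miR-21 action dims this reporter so a rising signal means less miR-21 action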
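HeLa cells endogenously expressing miR-21, stably carrying CMV-driven firefly luciferase with a downstream miR-21 binding site, 2000 cells/well. Titrations up to approximately 40 uM, 48 hours; luciferase luminescence read.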
* marks the source's active call; other numbers are inactive results; ? = inconclusive; nt = not tested or not shown. These rows are one share of the data; count on the stated rates, not on these rows.

Values run as follows: Rango dissoc inh | Rango-impB inh | GLA inh pH 4.5 | miR-21 FLuc
- CCOC(=O)c1cccc(NC(=O)CN(C)S(=O)(=O)c2cnc[nH]2)c1
    4% | -2.6% | 3 | -3%
- CCOc1ccc(C(C)NC(=O)c2cc(=O)[nH]c3ccccc23)cc1OCC (centres undefined)
    0% | 2.5% | nt | 2%
- CC(C)c1nc2sc3c(c2c(=O)[nH]1)CC(C)(C)OC3
    ? | -0.3% | nt | 2%
- NC(=O)CCCn1c(C(=O)c2cc(Cl)c(N)c(Cl)c2)c2ccc([N+](=O)[O-])cc2[n+]1[O-]
    0% | 5.3% | nt | nt
- COc1ccc(C(C(=O)NC2CCCCC2)N(C(=O)c2ccccn2)c2cccnc2)c(OC)c1 (centres undefined)
    1% | -2.9% | nt | 2%
- O=C(NCC(=O)N(c1cccc(F)c1)C(C(=O)NC1CCCC1)c1cccnc1)c1cccs1 (centres undefined)
    -11% | -0.1% | -8 | -1%
- CCCCCn1c(CNC(C)=O)nc2ccccc21
    2% | -6.0% | -3 | 2%
- CCN(CCCn1c(SCC#N)nc2ccccc2c1=O)c1ccccc1
    0% | 2.3% | -3 | -1%
- O=C(Nc1cc(Cl)ccc1O)C1CC(c2ccccc2O)=NO1 (centres undefined)
    3% | -1.4% | nt | 6%
- Cc1ccccc1NC(=S)N/N=C/c1ccc(O)cc1O
    -9% | ? | -7 | -1%
- Cc1cc(NS(=O)(=O)c2ccc(NC(=S)NC(=O)c3ccncc3)cc2)no1
    -2% | ? | -5 | 0%
- Clc1nc(CN2CCOCC2)nc2sc3c(c12)CCC3
    15% | 2.5% | -10 | -3%
- COCCCNC(=O)Cn1cnc2sc(C)c(S(=O)(=O)N3CC(C)CC(C)C3)c2c1=O (centres undefined)
    1% | 2.0% | nt | 8%
- Cc1ccc(N2CC(C)Cn3c2nc2c3c(=O)[nH]c(=O)n2C)cc1C (centres undefined)
    13% | -0.4% | nt | 3%
- C/C(N)=C(/C#N)C(=O)COC(=O)c1cc(-c2ccccc2)nc2ccc(Br)cc12
    nt | nt | 8 | -1%
- O=C(CN1C(=O)C2CC=CCC2C1=O)Nc1ccc(Br)cc1 (centres undefined)
    8% | -1.2% | nt | 1%
- CC1CCc2c(sc(NC(=O)C3CCCO3)c2C#N)C1 (centres undefined)
    21% | -1.4% | 12 | -59%
- CCOC(=O)CC1=CCc2c1ccc(OC)c2OC
    5% | -3.7% | nt | nt
- COc1cccc(C(=O)N2CCN(c3ccc(N4CCOCC4)nn3)CC2)c1
    -18% | -1.3% | nt | nt
- COc1cc(C2C(C(=O)OC(C)C)=C(C)Nc3[nH]c(=O)[nH]c(=O)c32)ccc1O (centres undefined)
    -1% | -0.4% | -9 | -3%
- C[C@@H]1COC(=O)[C@@H](Cc2ccc(F)cc2)C/C=C\C[C@@H](CC(=O)N[C@H](CO)Cc2ccccc2)C(=O)N1
    -2% | 0.1% | nt | nt
- Cc1nc(C)c(-c2ccccc2)c(=O)[nH]1
    6% | 3.0% | 8 | -3%
- Cc1ccc(NC2=NC3(CCCCC3)N=C(N)N2)c(C)c1
    -17% | 6.8% | -6 | 0%
- O=C(C1CCC1)N1CCc2cc(S(=O)(=O)NC3CCCC3)ccc21
    -21% | -1.1% | 11 | -8%
- COc1ccc(OC)c(S(=O)(=O)NC2CC(=O)N(c3ccc(C)c(C)c3)C2)c1 (centres undefined)
    -6% | 2.9% | nt | nt
- CC1CCCC(C)N1C(=O)c1cc(-c2cccs2)on1 (centres undefined)
    -2% | 3.9% | 2 | -72%
- O=C(NCc1nnc(SCC(=O)N2CCCc3ccccc32)o1)c1ccco1
    -17% | -2.5% | 3 | 0%
- COc1ccc(C)cc1NC(=O)C1CCN(C(=O)C2CC(=O)N(c3ccc(C)cc3)C2)CC1 (centres undefined)
    -18% | 3.4% | nt | 8%
- N=C1/C(=C/c2cccn2Cc2ccc(F)cc2)C(=O)N=C2SC=CN12
    ? | ? | -9 | -3%
- CC(C)CN1CCNC(=O)C1CC(=O)NCc1cnn(-c2cccc(F)c2)c1 (centres undefined)
    -17% | 0.5% | 0 | 1%
- O=C(Nc1ccccc1C(F)(F)F)c1cnccn1
    3% | 3.5% | nt | 0%
- CC1(C)CC(=O)c2sc(NS(=O)(=O)c3ccc([N+](=O)[O-])cc3)nc2C1
    10% | -0.8% | nt | -6%
- O=C(O)CNc1nc(-c2ccccc2)nc2c1oc1ccccc12
    -17% | -1.5% | 4 | -10%
- COC(=O)C1=C(C(=O)OC)[C@@H]2Nc3ccccc3[C@@]23C[C@@H](C(=O)OC)N(C(=O)CC(C)C)C3=N1
    2% | 1.6% | 3 | nt
- CC1(C)Cc2c(cnn2-c2ccccc2)C(NC(=O)CCN2CCCCO2)C1 (centres undefined)
    3% | 3.8% | nt | -13%
- O=C(O)c1ccc(-c2ccccn2)s1
    18% | 4.1% | 4 | -42%
- COc1ccc(C(=O)NC(C)c2nnc(SCc3ccc(Cl)c(Cl)c3)n2C)cc1 (centres undefined)
    -7% | 2.8% | -7 | -8%
- O=C(C1=NN[C@@H]2C(=O)N(c3cccc(F)c3)C(=O)[C@H]12)c1cnccn1
    -2% | -0.1% | -3 | -4%
- CC1(c2ccccc2)NC(=O)N(CC(=O)NNC(=O)c2ccccc2)C1=O (centres undefined)
    2% | ? | nt | -1%
- COc1ccc(CCNC(=O)COc2cc(C)cc3oc(=O)cc(C)c23)cc1
    -3% | 2.7% | nt | -3%
- Cc1ccc(C)c2[nH]c(=O)c(CN(Cc3ccco3)S(=O)(=O)c3ccc4c(c3)OCCO4)cc12
    -4% | ? | -6 | 23%
- N#Cc1cnn(-c2nc3sc4c(c3c(=O)[nH]2)CCCC4)c1N
    3% | -3.6% | 2 | -9%
- Cc1ccnc(NC(=O)c2ccc(OCc3c(C)noc3C)cc2)c1
    0% | 4.3% | nt | nt
- CC(C)N(C(=O)Cn1c(-c2cccnc2)ccc(C#N)c1=O)C(C)C
    -11% | -0.9% | nt | 3%
- CCCCC(O)(c1ccc(F)cc1)C(CN1CCOCC1)c1ccc(Cl)cc1 (centres undefined)
    -4% | 0.2% | nt | 21%
- Cn1c(=O)[nH]c(=O)c2c1nc(Sc1ncccn1)n2CCCc1ccccc1
    0% | 1.2% | -5 | -15%
- Nn1c(SCCOc2ccccc2)nnc1-c1cccnc1
    -9% | 1.1% | -4 | -17%
- O=C(/C=C/c1ccc2c(c1)OCCO2)c1ccccc1
    -9% | -3.8% | -5 | -40%
- CCOC(=O)C1CCCCN1Cc1cccc(F)c1 (centres undefined)
    18% | 8.2% | 5 | -1%
- O=C(Cc1cccs1)NCC1CCCO1 (centres undefined)
    -3% | -4.4% | 1 | -3%
- CC1=C(C(=O)Nc2cccc(C(=O)NCc3ccc(F)cc3)c2)SCCO1
    10% | 0.3% | nt | 16%
- O=C(CN(C(=O)CNS(=O)(=O)c1ccc(F)cc1)c1ccccc1F)NCc1ccco1
    0% | 3.5% | nt | -1%
- Cc1ccc(OCc2cc(C(=O)N3CC4C[C@@H]5CC3C[C@H](C4)C5)no2)cc1C
    12% | 0.5% | nt | -50%
- CCC(C)NC(=O)c1cn(CC)c2ccc(S(=O)(=O)N3CCCCCC3)cc2c1=O (centres undefined)
    15% | 0.5% | nt | 2%
- Cc1cc(C)c(N2CCN(S(=O)(=O)N3CCCCCC3)CC2)c(C)c1
    -16% | ? | -3 | ?
- CC1=CCC2C(=O)N(c3ccc4ccccc4n3)C(=O)C2C1 (centres undefined)
    -10% | ? | 2 | -10%
- COc1ccc(Br)cc1/C=N/NC(=O)c1cccnc1
    8% | 1.5% | nt | 4%
- C[C@H]1CN=C(N(C)C)N1CCCC1CCCCC1
    -1% | -0.9% | nt | nt
- O=C(NCCCNC(=O)c1cnccn1)c1cccc(Cl)c1
    1% | -1.0% | nt | -1%
- O=C(COC(=O)C1CC1)Nc1ncc(C(F)(F)F)cc1Cl
    -8% | 1.8% | 11 | 2%

(cont.)
Values run as follows: Rango dissoc inh | Rango-impB inh | GLA inh pH 4.5 | miR-21 FLuc
- C=C(C)c1cccc(C(C)(C)NC(=O)N(Cc2ccccc2)Cc2ccco2)c1
    -2% | -2.2% | 3 | 5%
- COc1cccc(-n2c(N)cc(=O)nc2SCC(=O)N2CCN(c3ccccc3)CC2)c1
    0% | 0.7% | nt | 1%
- C[C@@H]1CN([C@H](C)CO)C(=O)c2cccc(NS(=O)(=O)c3ccccc3)c2O[C@H]1CN(C)C
    -13% | -0.7% | nt | nt
- COc1ccc(C(=O)N(CN2CCCC2=O)c2cc(C)on2)cc1OC
    0% | -1.9% | -3 | -4%
- O=C(NC1CCCCC1)C(c1ccncc1)N(C(=O)Cn1nnc(-c2cccs2)n1)C1CCCC1 (centres undefined)
    -12% | -1.9% | -2 | -12%
- CS(=O)(=O)c1ccc(NCCc2ccc(S(N)(=O)=O)cc2)c([N+](=O)[O-])c1
    0% | -1.9% | nt | 4%
- Cc1ccc(C)c(S(=O)(=O)Nc2ccc3oc(C)c(C(=O)O)c3c2)c1
    -1% | 2.6% | nt | 0%
- Cc1nc([N+](=O)[O-])c(Br)n1CC(=O)c1ccc(Br)cc1
    -12% | ? | 0 | ?
- CC1CC(C)CN(C(=O)CN2C(=O)NC3(CCCCCCC3)C2=O)C1 (centres undefined)
    10% | 2.7% | nt | nt
- CC(C)CNc1nnnc2c1sc1nc(N3CCOCC3)c3c(c12)CC(C)(C)SC3
    -8% | -1.7% | 2 | -4%
- CC(C(=O)OCC(=O)Nc1ccc(S(N)(=O)=O)cc1)N1C(=O)c2ccccc2C1=O (centres undefined)
    -8% | 4.3% | nt | nt
- O=C(CN1CCOCC1)Nc1ccccc1-c1ccccc1
    -6% | 0.6% | -3 | 0%
- C=CCc1cccc2cc(C(=O)OCC(=O)c3ccccc3)c(=O)oc12
    6% | -9.6% | -1 | -1%
- OCC[C@H]1C[C@@H](O)[C@H](O)[C@]2(CCc3ccccc3CO2)O1
    17% | -1.9% | nt | nt
- O=C(NCCCCCCNC(=O)c1ccc(Br)s1)c1ccc(Br)s1
    18% | -2.7% | 7 | -28%

In the list so far, these contain a COOH group.
Values run as follows: Rango dissoc inh | Rango-impB inh | GLA inh pH 4.5 | miR-21 FLuc
- O=C(O)CNc1nc(-c2ccccc2)nc2c1oc1ccccc12
    -17% | -1.5% | 4 | -10%
- O=C(O)c1ccc(-c2ccccn2)s1
    18% | 4.1% | 4 | -42%
- Cc1ccc(C)c(S(=O)(=O)Nc2ccc3oc(C)c(C(=O)O)c3c2)c1
    -1% | 2.6% | nt | 0%

Carrying on.
Values run as follows: Rango dissoc inh | Rango-impB inh | GLA inh pH 4.5 | miR-21 FLuc
- Cc1cc2nc(C)c(=O)n(C)c2cc1C
    -10% | -0.2% | 16 | -10%
- O=C(CCCN1C(=O)c2cccc3cccc(c23)C1=O)NC1CCS(=O)(=O)C1 (centres undefined)
    -13% | -2.8% | -2 | -9%
- O=C(CCNC(=O)c1ccccc1)NC1CCCc2ccccc21 (centres undefined)
    7% | 2.5% | nt | nt
- Cc1ccc(NC(=O)CSc2nnc(-c3cnccn3)n2Cc2ccco2)cc1
    -24% | 1.2% | 2 | -9%
- Oc1ccccc1Cn1nnc2ccccc21
    32% | 5.6% | nt | -16%
- CCOC(=O)c1c(NC(C)=O)sc2c(OC(C)=O)cccc12
    -4% | -0.7% | 7 | -3%
- O=C1OC(c2ccccc2)c2ccccc21 (centres undefined)
    -13% | 2.5% | -6 | -17%
- O=C(OCCCOc1ccc(F)cc1)c1ccc(O)cc1O
    6% | 0.8% | nt | -10%
- COc1ccc(CNC(=O)C[C@H]2C[C@H](C(=O)N3CCOCC3)[C@@]3(C)c4[nH]c5ccc(Cl)cc5c4CCN3C2=O)cc1OC
    5% | -4.2% | nt | nt

Screens: PubChem, National Center for Advancing Translational Sciences (NCATS)
